Sfp PPTase inh: qHTS Assay for Inhibitors of Bacillus subtilis Sfp phosphopantetheinyl transferase (PPTase); Biochemical Sfp PPTase activity, qHTS; 4'-phosphopantetheinyl transferase ffp (Bacillus subtilis), Q9F4F7; 3.5% of 310,000 active; Potency, µM, without a hit: max response, negative = inhibition, most hits filed as inhibitors; active = well fitted inhibition curve with a large enough effect; inconclusive = small, poorly fitted or top-dose-only effect, or another doubt; inactive = no such curve, though single readings can be large or run the other way;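 also: the enzyme is Sfp with the accession as filed and its product quenches rhodamine fluorescence; potency is read from the fitted curve at half-maximal effect; 0% = enzyme reaction without inhibitor and -100% = no enzyme wells; top concentration of the series not given in the record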
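Fluorescence-quenching assay with 15 nM Sfp, 5 uM rhodamine-CoA and 12.5 uM BHQ-2-labelled ybbR peptide in pH 7.6 Hepes/MgCl2 buffer. Enzyme was pre-incubated with compound for 15 min at room temperature. Rate was taken from the 30-min fluorescence change (525/598 nm).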
PINK1 expr mod: A Quantitative High throughput Screen to Identify Chemical Modulators of PINK1 Expression; PINK1 immunofluorescence, high-content cytometry, 24 h; AID 624263, 2012; 0.2% of 410,000 active; Potency, µM (top dose mostly 76.6 µM), without a hit: at the highest dose activation (PINK1 increase), most hits filed as activators; active = well fitted activation curve with a large enough effect; inconclusive = small, poorly fitted or top-dose-only effect; inactive = flat fitted curve, though single readings scatter; cell line not stated here;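 also: potency is read from the fitted curve at half-maximal effect; % of control where 0% means no effect; nearly all actives have a fitted effect of over 65% in size; a mitochondrial uncoupler was the plate control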
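A stable cell line was treated with compounds at 5 concentrations for 24 hours, with CCCP as control. PINK1 levels and mitochondrial localization were measured by immunofluorescence with mitochondrial, cell and nuclear markers after fixation, read by laser-scanning cytometry.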
D2 agonist: Beta-Arrestin HTS for Positive Allosteric Modulators of the Human D2 Dopamine Receptor: Agonists. D(2) dopamine receptor (Homo sapiens), P14416. DiscoveRx PathHunter D2 beta-arrestin, luminescence, 90 min; 100% = 57 uM dopamine signal. activation, % (test concentration not listed). 0.084% of 360,000 active. AID 624465, 2012; in the data active = activation above about 40%; inconclusive = about 15% to 40%; inactive = below about 15%; also: compound concentration not given in the record; the text of the record calls up to 30% inactive
Target sequence (P14416 whole entry, looked up): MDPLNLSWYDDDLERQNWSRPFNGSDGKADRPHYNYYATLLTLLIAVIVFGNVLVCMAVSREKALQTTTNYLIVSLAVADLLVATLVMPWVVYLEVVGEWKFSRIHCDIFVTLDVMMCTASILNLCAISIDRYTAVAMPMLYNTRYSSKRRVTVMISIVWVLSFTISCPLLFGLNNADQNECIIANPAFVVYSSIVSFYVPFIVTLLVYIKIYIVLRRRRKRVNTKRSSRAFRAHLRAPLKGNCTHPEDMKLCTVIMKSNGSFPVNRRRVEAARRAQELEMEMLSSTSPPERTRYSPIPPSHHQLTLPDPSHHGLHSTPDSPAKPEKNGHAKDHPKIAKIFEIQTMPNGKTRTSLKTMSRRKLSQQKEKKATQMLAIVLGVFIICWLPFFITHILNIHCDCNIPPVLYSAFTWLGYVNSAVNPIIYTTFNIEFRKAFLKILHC
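Agonist mode: compounds alone added to overnight-plated D2 PathHunter cells for 90 min at 37 C, with 57 uM final dopamine (EC100) defining full response. Beta-arrestin recruitment detected by chemiluminescent reagent, read after 1 h at ambient temperature.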
CtBP-E1A inh: qHTS Assay for Inhibitors of the CtBP/E1A Interaction; AlphaScreen GST-E1A/His-CtBP binding, 1536-well; hits give low values; control for the full effect not named in the record; CtBP / adenovirus E1A interaction (AlphaScreen); 0.49% of 340,000 active; activity change, % (no concentration beside the values); in the data active means activity change below about -65%; inconclusive means about -30% to -65%; inactive means above about -30%; also: % is scaled to controls: 0 for no effect and ±100 for the full control effect; compound concentration not given in the record
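Steps: dispense buffer (Tris pH 8.0, NaCl 300 mM, TCEP 1 mM, BSA, Tween 20); add 5X protein mix (GST-E1A, His-CtBP, 125 nM each); pin 23 nL compound; 2 h at 37 °C, dark; add 5X beads (50 ug/mL); 1 h; read.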
D2 potentiator: Beta-Arrestin HTS for Positive Allosteric Modulators of the Human D2 Dopamine Receptor: Potentiators; D(2) dopamine receptor (Homo sapiens), P14416; 0.23% of 360,000 active; DiscoveRx D2 beta-arrestin cells, luminescence, 90 min; 100% = 57 uM dopamine signal; potentiation, % (test concentration not listed); AID 624464, 2012; active = potentiation of 50% or more; inconclusive = 30% to 50%; inactive = 30% or less;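 also: compound concentration not given in the record; tested on top of an EC20 dose of dopamine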
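PathHunter beta-arrestin assay in DiscoveRx D2 cells. Compounds were added with an EC20 of dopamine (50 nM final) for 90 min at 37 deg C. Luminescence was read 1 h after detection reagent, with 57 uM dopamine as the EC100 control.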
Six1-Eya2 inh: qHTS Assay for Inhibitors of the Six1/Eya2 Interaction. Homeobox protein SIX1 (Homo sapiens) + Protein phosphatase EYA2 (Homo sapiens), …. AlphaScreen GST-Six1/His-Eya2 binding, biochemical; hits give low values; control for the full effect not named in the record. activity change, % (no concentration beside the values). 0.56% of 360,000 active. AID 651725, 2012; in the data active = activity change below about -65%; inconclusive = about -30% to -65%; inactive = above about -30%; also: % is scaled to controls: 0 for no effect and ±100 for the full control effect; compound concentration not given in the record
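Six1/Eya2 binding was read as AlphaScreen signal after compounds were pinned into GST-Six1 plus His-tagged Eya2 (5X stock 250/500 nM) in pH 8.0 Tris/NaCl/TCEP buffer, beads added, then incubated 1 h, 37 C, dark.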
TRPV1 PAM: HTS Assay for Compounds that Act as Potentiators of the Vanilloid Receptor 1. AID 540277, 2011. Transient receptor potential cation channel subfamily V member 1 (Homo sapiens), Q8NER1. potentiation, % at 8.33 µM. 0.02% of 320,000 active. TRPV1-expressing cells, Fluo-8 calcium influx, capsaicin EC20 potentiation; host cell line not named in the record; control for the full effect not named in the record; active means potentiation above 80%; inconclusive means 30% to 80%; inactive means below 30%; also: 0% is about no effect
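Cells expressing TRPV1 were dye-loaded with Fluo-8 and read kinetically: 10 s baseline, 3 min after compound (agonist portion), then 2 min after EC20 capsaicin (allosteric enhancer portion). Calcium-bound dye fluorescence at 480/520 nm.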
* = called active by the depositor; ? = inconclusive; nt = not tested or not shown; & = joins results of further samples; [ ] = dose if it differs, or a comment.

canonical_smiles | PINK1 expr mod | CtBP-E1A inh | Sfp PPTase inh | TRPV1 PAM | D2 agonist | Six1-Eya2 inh | D2 potentiator
COc1cc(C(=O)N(Cc2ccccc2)c2cccc(C)c2)ccc1OCC(=O)N1CCOCC1 | 0.8% | -2 | nt | nt | 1.3 | 1 | -6
N#C/C(=C/c1cn(-c2ccccc2)nc1-c1cccc(OCc2ccc(F)cc2)c1)C(=O)NCCCn1ccnc1 | 1.2% | -21 | ? | -4 | 13 | -26 | 12
O=C1N[C@H](Cc2ccccc2)COC(=O)[C@@H](Cc2ccc(F)cc2)C/C=C\C[C@H]1CC(=O)N(CCO)Cc1ccccc1 | 1.9% | 0 | nt | nt | 2.0 | -3 | -6
COc1ccc(C2=[N+]([O-])C(C)(C)C(c3ccccc3)=N2)cc1 | -0.4% | -26 | 9% | -40 | -3.3 | -3 | -5
Cc1cccc(N/C(N)=N/c2nc(C)cc(=O)[nH]2)c1 | -1.0% | 8 | 19% | 3 | -1.2 | 1 | -1
Cn1cc(Br)c(NC(=O)/C=C/C(=O)O)n1 | 1.6% | nt | 8.9µM* | 29 | 0.9 | 3 | 3
O=c1c(-c2ccc(Br)cc2)coc2c(CN3CCCCC3)c(O)ccc12 | -2.1% | 1 | 21% | 4 | 5.3 | 1 | -5
CC(=O)C(C(c1ccccc1)N1CCCc2ccccc21)N1CCOCC1 (centres undefined) | 0.8% | -17 | nt | nt | 1.6 | -15 | -8
COc1cc(OC)cc(C(=O)NNC(=O)c2cc(S(=O)(=O)N3CCOCC3)ccc2F)c1 | -1.0% | 0 | nt | -1 | -3.0 | 1 | -5
CCN(CCn1cccn1)Cc1cn[nH]c1-c1ccc(-c2ccccc2)cc1 | 0.9% | nt | -14% | -4 | -3.0 | -15 | -5
Cc1ccc(S(=O)(=O)NCC2CCC(C(=O)NCCCN3CCOCC3)CC2)cc1 (centres undefined) | -0.3% | 2 | 11% | -14 | -1.4 | 8 | -10
O=C(NCc1ccco1)Nc1cccc2ccccc12 | 2.9% | -2 | nt | nt | 4.4 | -9 | -1
COc1ccc2c(Cl)c(C(=O)NCc3ccco3)sc2c1 | 0.5%[38.3 µM] | -14 | -25% | 26 | -3.9 | -12 | -10
Cc1nn(-c2ccccc2)c(C)c1C(=O)OCC(=O)Nc1cccc(S(N)(=O)=O)c1 | -0.3% | 0 | nt | 4 | -1.9 | -2 | 3
O=C(COC(=O)/C=C/c1ccccc1[N+](=O)[O-])NC(=O)NC1CCCC1 | -1.5% | 2 | nt | 2 | -4.9 | -11 | -12
O=C(O)c1ccc(-c2nc3ccccc3[nH]2)cc1 | -0.8% | 9 | -15% | 0 | 0.8 | 2 | 25
CC(=O)NN1C(=O)/C(=C/c2ccc(C(C)C)cc2)SC1=S | 9.9% | 0 | -13% | -20 | -4.8 | -6 | -19
COC(=O)[C@]12CCCCC=C1N(CCC1=CCCCC1)C(=O)[C@H](CC(=O)NCC13CC4CC(CC(C4)C1)C3)C2 | 13% | 2 | nt | nt | nt | -4 | nt
COc1cc([N+](=O)[O-])ccc1NC(=O)CN(C)C | nt | 7 | -9% | 8 | -1.5 | 0 | -21
N#Cc1cccn1-c1nccs1 | 0.3% | -5 | -3% | 30 | -1.1 | 2 | 4
Oc1ccccc1C1=Nc2ncnn2C(c2ccccc2)C1 (centres undefined) | 11%[38.3 µM] | 1 | 0% | -11 | -5.3 | -1 | -24
Cc1cc(C)c(C(=O)N2CCCC(C(=O)c3cc(F)ccc3F)C2)o1 (centres undefined) | 1.1% | nt | 3% | -30 | 2.6 | -9 | 3
CN1/C(=C/c2cc[n+](C)c3ccccc23)C=Cc2ccccc21 | ? | -11 | -4% | -6 | 7.6 | ? | -23
CC1CCc2c(nc3ncnn3c2Nc2ccc(OC(F)(F)F)cc2)C1 (centres undefined) | 3.7% | 4 | 14% | -6 | 0.5 | 4 | -22
COc1ccc(Nc2ccc([N+](=O)[O-])cn2)cn1 | -0.4% | nt | 8% | 8 | -4.9 | 5 | -4
CCCC1N2CC3([N+](=O)[O-])CN1CC([N+](=O)[O-])(C2)C3(C)C (centres undefined) | -2.4% | -2 | 12% | -2 | -1.9 | 0 | ?
CCCC(=O)c1cc2c(cc1NC(=O)c1ccccc1F)OCCO2 | 3.5%&-0.3% | 16 | 3% | -8 | -4.8 | -1 | -5
CCOC(=O)C1=CCC(c2cccc3ccccc23)N(S(=O)(=O)c2ccc(C)cc2)C1 (centres undefined) | 1.0% | -1 | nt | nt | -4.7 | -1 | -1
COc1ccccc1C#Cc1cnc2c(c1)C(=O)N([C@H](C)CO)C[C@H](C)[C@@H](CN(C)S(=O)(=O)c1cn(C)cn1)O2 | 2.1% | 2 | nt | nt | 5.1 | -2 | 10
COc1cccc2cc(C(=O)NC(C)C3CCCO3)c(=O)oc12 (centres undefined) | -13%[38.3 µM] | -7 | -2% | 30 | -2.5 | 4 | -8

Among those listed so far, these have bromine:
canonical_smiles | PINK1 expr mod | CtBP-E1A inh | Sfp PPTase inh | TRPV1 PAM | D2 agonist | Six1-Eya2 inh | D2 potentiator
Cn1cc(Br)c(NC(=O)/C=C/C(=O)O)n1 | 1.6% | nt | 8.9µM* | 29 | 0.9 | 3 | 3
O=c1c(-c2ccc(Br)cc2)coc2c(CN3CCCCC3)c(O)ccc12 | -2.1% | 1 | 21% | 4 | 5.3 | 1 | -5

Back to the main list with the 2 entries that preceded the break.
canonical_smiles | PINK1 expr mod | CtBP-E1A inh | Sfp PPTase inh | TRPV1 PAM | D2 agonist | Six1-Eya2 inh | D2 potentiator
COc1ccccc1C#Cc1cnc2c(c1)C(=O)N([C@H](C)CO)C[C@H](C)[C@@H](CN(C)S(=O)(=O)c1cn(C)cn1)O2 | 2.1% | 2 | nt | nt | 5.1 | -2 | 10
COc1cccc2cc(C(=O)NC(C)C3CCCO3)c(=O)oc12 (centres undefined) | -13%[38.3 µM] | -7 | -2% | 30 | -2.5 | 4 | -8
CNc1oc(-c2cccc3ccccc23)nc1C#N | -1.5% | 42 | 15% | -9 | -0.6 | 35 | 7
N#CCCN(C(=O)COC(=O)c1nc(Cl)ccc1Cl)c1ccccc1 | 0.3% | 6 | nt | -25 | -5.7 | -2 | 2
CCN1CCN(c2ccc(S(=O)(=O)N3CCOCC3)cc2NC(=O)C(C)Oc2ccc(Cl)cc2)CC1 (centres undefined) | 0.0% | -13 | nt | -23 | -4.9 | -5 | -4
CCNc1c([N+](=O)[O-])ncn1C | -1.6% | 6 | 20% | -2 | -2.9 | 5 | -5
O=C(NCC1CCCO1)c1c(O)c2c([nH]c1=O)CCCC2 (centres undefined) | nt | 5 | 1% | 0 | -0.5 | -4 | -19
CCCOc1ccc(C(C)=O)cc1CSCCC#N | 0.1% | 1 | 2% | -4 | -2.0 | -8 | -12
O=C1NC(=O)C2(CCCCC2C2CCCCC2)N1 (centres undefined) | -0.2% | 1 | nt | nt | -2.9 | -6 | -17
O=S(=O)(NCCOc1ccc(F)cc1)c1ccc2c(c1)OCCO2 | -2.2% | 0 | 0% | 0 | -2.7 | -15 | -5
O=C(CCC(=O)OCc1ccc(C(=O)Oc2ccccc2)cc1)Nc1cccc2ccccc12 | -0.9% | 3 | ? | 0 | -4.3 | 0 | -20
Cc1ccccc1CN1C(=O)Nc2ccccc2C(=O)N1C(C)(C)C | -1.2% | -2 | 5% | -5 | -2.4 | 0 | -8
Cc1cc(SCC(=O)NCCN2C(=O)CSC2=O)nc2ccccc12 | -2.2% | 2 | -28% | -22 | -1.2 | -4 | -10
CC(C)CNC(=O)C1(C)CCCN1C(=O)c1csnn1 (centres undefined) | 1.1% | 8 | nt | nt | -2.4 | 6 | -10
Cc1ccc(C)c(S(=O)(=O)Nc2ccc(O)c(Sc3ncn[nH]3)c2)c1 | 0.2% | -5 | ? | 26 | 10 | -1 | 3
CCN1C/C(=C\c2cccc([N+](=O)[O-])c2)C(=O)/C(=C/c2cccc([N+](=O)[O-])c2)C1 | -2.4% | -1 | -1% | -5 | -2.7 | 3 | -17
CC(C)N(C(=O)[C@H]1C[C@H](CC(=O)NCc2cccc(C(F)(F)F)c2)C(=O)N2CCc3c([nH]c4cc(CCC(=O)N(C)C)ccc34)[C@]12C)C(C)C | 6.2% | -4 | nt | nt | 2.1 | -3 | 0
COc1ncnc2c1ncn2CCCN(C)Cc1ccco1 | 2.0% | 7 | nt | nt | -1.9 | -4 | -8
C=CCc1c(OC)ccc2ccc(=O)oc12 | 0.4% | 13 | 2% | 1 | -2.3 | 6 | -24
CN1CCC(N(C)C(=O)c2cc(S(=O)(=O)N3CCOCC3)ccc2Cl)CC1 | -1.9% | -3 | nt | nt | -0.8 | 7 | -8
COc1ccc(NC(=S)NC(=O)Cc2ccccc2)c(OC)c1 | -0.5% | -23 | 12% | -10 | 6.2 | -14 | -3
C=CCOc1ccc(C(=O)n2cc(C(=O)OC)c3ccccc32)cc1 | 2.0% | 37 | -22% | 9 | 0.0 | 23 | -3
CC(C)(C)n1nnnc1C(C1CC1)N1CCN(C/C=C/c2ccccc2)CC1 (centres undefined) | 0.8% | -1 | nt | nt | 3.4 | -3 | -5
CCOc1ccc(NC(=O)CSc2nc3c(c(=O)n2-c2ccccc2OC)SCC3)cc1 | 0.4% | -20 | 15% | 2 | -7.5 | -12 | -1
O=C(O)c1ccc(N2C(=O)CC(N3CCN(c4cccc(Cl)c4)CC3)C2=O)cc1 (centres undefined) | 0.6% | nt | -6% | 0 | 2.1 | -3 | -1
S=c1[nH]nc(C2CCCCC2)n1/N=C/c1ccc(Cl)cc1 | 6.2% | 0 | ? | -11 | 4.4 | -6 | -4
C=CCn1c(SCC(=O)Nc2nncs2)nnc1-c1ccco1 | 1.9% | 0 | -1% | -5 | -1.7 | -4 | -5
Cc1cc(C)cc(NC(=O)N2CCC(C(=O)c3ccc(F)cc3)CC2)c1 | 1.7% | nt | 5% | -14 | 8.0 | 1 | -10
